# Screens as filed in PubChem BioAssay.
# Env fusion inh: inhibitors of HIV-1 Env-driven cell-cell fusion, primary screen, HeLa-JRFL effector, CEM21 target cells, luciferase. 360,000 compounds, 1.1% hits. inhibition, % at 12.3 µM;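 active = mean replicate inhibition score of at least 50 and every replicate individually at or above 50; inconclusive = only one of the two criteria met; inactive = mean below 50 and not all replicates reaching 50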;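 note: 0% = plate neutral controls and 100% = maraviroc near 300 nM; one replicate is shown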
# Yeast UUG start: modulators of yeast start codon fidelity, primary screen, whole organism, S. cerevisiae, single point, plate reader | activity score, % at 18.7 µM | S. cerevisiae UUG-firefly luciferase reporter, luminescence/redox ratio | 350,000 compounds, 0.13% hits;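 active = replicate mean at a twofold rise or more, about +100% in these data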;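 note: firefly luciferase made from a UUG start codon reports start codon fidelity; reporter light over untreated wells divided by growth signal over untreated wells; some hits fall short of that in this replicate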
# The depositor's hits bear a star; ? = inconclusive; & = joins results of further samples; [ ] = remark or other dose. The list is partial; the hit share may differ from the screen's.
# Below each compound – Yeast UUG start	Env fusion inh
CCCN(C)C[C@H]1Oc2cc(/C=C/c3ccccc3)ccc2S(=O)(=O)N([C@H](C)CO)C[C@H]1C
→ 18	12[16.7 µM]
N#C[C@@H]1[C@@H](c2ccc(C3=CCCC3)cc2)[C@@H](CO)N1S(=O)(=O)c1ccccc1
→ 12	9[16.7 µM]
C[C@@H]1CCCCO[C@@H](CN(C)C(=O)Nc2ccc3c(c2)OCO3)[C@H](C)CN([C@H](C)CO)C(=O)c2cc(NS(=O)(=O)c3ccc(F)cc3)ccc2O1
→ -6	2[16.7 µM]
O=C(Nc1ccccc1F)N[C@H]1CC[C@@H](CCNC(=O)C2CCC2)O[C@@H]1CO
→ -11	25[16.7 µM]
C[C@@H]1CN([C@H](C)CO)S(=O)(=O)c2ccc(C#Cc3ccc(F)cc3)cc2O[C@@H]1CN(C)S(=O)(=O)c1cn(C)cn1
→ -5	14[16.7 µM]
C[C@@H]1CCCCO[C@@H](CN(C)Cc2ccc(Cl)c(Cl)c2)[C@H](C)CN([C@H](C)CO)C(=O)c2cc(NS(=O)(=O)c3cccs3)ccc2O1
→ 19	?
Cc1ccc(S(=O)(=O)N[C@H]2CC[C@@H](CCNS(=O)(=O)Cc3ccccc3)O[C@H]2CO)cc1
→ 5	-15[16.7 µM]
C[C@@H]1CN([C@@H](C)CO)C(=O)Cc2cc(NC(=O)Cc3cn(C)c4ccccc34)ccc2O[C@H]1CN(C)Cc1ccc(C(=O)Nc2ccccc2N)cc1
→ 11	-6[16.7 µM]
Cc1ccc(S(=O)(=O)N(C)C[C@@H]2OCCCC[C@@H](C)Oc3ccc(NC(=O)NC(C)C)cc3C(=O)N([C@@H](C)CO)C[C@H]2C)cc1
→ 7	11[16.7 µM]
Cc1ccc(S(=O)(=O)N(C)C[C@H]2Oc3ccc(NC(=O)Cc4cn(C)c5ccccc45)cc3C(=O)N([C@H](C)CO)C[C@@H]2C)cc1
→ -5	12[16.7 µM]
Cc1ccc(S(=O)(=O)Nc2ccc3c(c2)CC(=O)N([C@@H](C)CO)C[C@@H](C)[C@@H](CN(C)Cc2ccc(-c4ccccc4)cc2)O3)cc1
→ 23	-2[16.7 µM]
C[C@@H]1CCCCO[C@H](CN(C)C)[C@@H](C)CN([C@H](C)CO)C(=O)c2cc(NS(=O)(=O)c3ccc(F)cc3)ccc2O1
→ 11	-6[16.7 µM]
O=C(C[C@@H]1C=C[C@H](NC(=O)Nc2ccc(F)cc2)[C@@H](CO)O1)NCCN1CCCC1
→ 3	-1[16.7 µM]
C[C@@H]1CN([C@@H](C)CO)S(=O)(=O)c2ccc(C#Cc3ccccc3F)cc2O[C@@H]1CN(C)CC1CC1
→ 13	-1[16.7 µM]
C[C@@H]1CN([C@H](C)CO)C(=O)c2cccc(NC(=O)Nc3ccccc3)c2O[C@@H]1CN(C)Cc1ccccc1
→ 3	-8[16.7 µM]
C[C@H](CO)N1C[C@H](C)[C@@H](CN(C)S(=O)(=O)c2ccccc2)OCCCC[C@H](C)Oc2ccc(NC(=O)CCC(F)(F)F)cc2C1=O
→ -12&13	-223
Cc1ccccc1S(=O)(=O)NCC[C@@H]1CC[C@H](NC(=O)C2CCCCC2)[C@@H](CO)O1
→ 2	3[16.7 µM]
C[C@H](CO)N1C[C@H](C)[C@H](CN(C)Cc2ccccn2)Oc2ncc(-c3cccc(F)c3)cc2C1=O
→ -18	-7[16.7 µM]
Cc1ccc(S(=O)(=O)N(C)C[C@H]2Oc3c(NC(=O)c4ccncc4)cccc3C(=O)N([C@@H](C)CO)C[C@H]2C)cc1
→ -13	-15[16.7 µM]
C[C@@H]1CCCCO[C@H](CN(C)S(=O)(=O)c2cccs2)[C@@H](C)CN([C@H](C)CO)C(=O)c2cc(NS(=O)(=O)c3cccs3)ccc2O1
→ 19	0[16.7 µM]
CO[C@@H]1CN(C)C(=O)c2cc(NC(C)=O)ccc2OC[C@@H](C)N(CCC(F)(F)F)C[C@@H]1C
→ 6	-9[16.7 µM]
C[C@@H]1CCCCO[C@@H](CN(C)C(=O)CCCN(C)C)[C@H](C)CN([C@H](C)CO)C(=O)c2cc(NC(=O)Cc3ccccc3)ccc2O1
→ 9	6[16.7 µM]
COCC#Cc1cnc2c(c1)C(=O)N([C@@H](C)CO)C[C@H](C)[C@@H](CN(C)C(=O)Cc1ccccc1)O2
→ -3	-11[16.7 µM]
C[C@H](CO)N1C[C@H](C)[C@H](CN(C)C(=O)c2ccncc2)Oc2cc(C3=CCCCC3)ccc2S1(=O)=O
→ -4	-5[16.7 µM]
C[C@@H]1CN([C@@H](C)CO)C(=O)c2cc(-c3ccc(F)cc3)cnc2O[C@H]1CN(C)Cc1ccccn1
→ -13	-5[16.7 µM]
C[C@@H]1CN([C@@H](C)CO)C(=O)c2cc(NC(=O)c3ccccc3)ccc2O[C@@H](C)CCCCO[C@@H]1CN(C)CC1CCCCC1
→ 60	1[16.7 µM]
C[C@@H]1CN([C@@H](C)CO)C(=O)c2cc(NC(=O)C3CCCCC3)ccc2O[C@@H](C)CCCCO[C@@H]1CN(C)C(=O)Nc1ccccc1
→ -3	12[16.7 µM]
C[C@H](CO)N1C[C@H](C)[C@@H](CN(C)C(=O)CC2CC2)Oc2ncc(C#Cc3cccnc3)cc2C1=O
→ 13	-23[16.7 µM]
C[C@@H]1CCCCO[C@H](CN(C)C(=O)Nc2ccc3c(c2)OCO3)[C@H](C)CN([C@@H](C)CO)C(=O)c2cc(NC(=O)CCCN(C)C)ccc2O1
→ 9	-12[16.7 µM]
COC(=O)C[C@H]1CC[C@H]2[C@@H](COC[C@H](O)CN2CCC(F)(F)F)O1
→ -12	-11[16.7 µM]

# Ordered by value in Yeast UUG start (falling): some entries from above.
compound,Yeast UUG start
C[C@@H]1CCCCO[C@@H](CN(C)C(=O)CCCN(C)C)[C@H](C)CN([C@H](C)CO)C(=O)c2cc(NC(=O)Cc3ccccc3)ccc2O1,9
Cc1ccccc1S(=O)(=O)NCC[C@@H]1CC[C@H](NC(=O)C2CCCCC2)[C@@H](CO)O1,2
C[C@H](CO)N1C[C@H](C)[C@H](CN(C)Cc2ccccn2)Oc2ncc(-c3cccc(F)c3)cc2C1=O,-18

# (further entries)
# Below each compound – Yeast UUG start	Env fusion inh
C[C@@H]1CN([C@@H](C)CO)C(=O)c2cc(-c3ccc(C#N)cc3)cnc2O[C@H]1CN(C)Cc1ccccn1
→ -30	4[16.7 µM]
C[C@@H]1CN([C@@H](C)CO)C(=O)Cc2cc(NC(=O)Nc3ccc(C(F)(F)F)cc3)ccc2O[C@H]1CN(C)S(=O)(=O)c1cccs1
→ -2	-4[16.7 µM]
C[C@@H]1CN([C@@H](C)CO)C(=O)c2cc(NS(=O)(=O)c3ccccc3)ccc2O[C@H]1CN(C)CC1CC1
→ 3	9[16.7 µM]
C[C@@H]1CCCCO[C@H](CN(C)C(=O)Nc2ccccc2)[C@@H](C)CN([C@H](C)CO)C(=O)c2cc(NC(=O)Nc3cccc4ccccc34)ccc2O1
→ 28	-45[16.7 µM]
C[C@H]1CN([C@@H](C)CO)C(=O)c2cc(NS(=O)(=O)c3cn(C)cn3)ccc2O[C@H]1CN(C)S(=O)(=O)c1ccccc1
→ -14	29[16.7 µM]
C[C@H]1CN([C@@H](C)CO)C(=O)Cc2cc(NS(C)(=O)=O)ccc2O[C@H]1CN(C)S(C)(=O)=O
→ -8	13[16.7 µM]
Cc1ccc(S(=O)(=O)N[C@H]2CC[C@@H](CC(=O)NCc3ccc(Cl)c(Cl)c3)O[C@H]2CO)cc1
→ -2	17[16.7 µM]
C[C@H](CO)N1C[C@H](C)[C@@H](CN(C)Cc2ccc(Cl)c(Cl)c2)Oc2ccc(NC(=O)Nc3ccccc3)cc2CC1=O
→ 3	6[16.7 µM]
Cc1noc(C)c1S(=O)(=O)Nc1ccc2c(c1)C(=O)N([C@H](C)CO)C[C@@H](C)[C@@H](CN(C)S(=O)(=O)c1cccs1)OCCCC[C@@H](C)O2
→ 4	18[16.7 µM]
C[C@@H]1CN([C@@H](C)CO)C(=O)c2cc(C#CC3CCCCC3)cnc2O[C@H]1CN(C)S(=O)(=O)c1ccc(F)cc1
→ 119*	-2[16.7 µM]
C[C@@H]1CCCCO[C@@H](CN(C)C(=O)Nc2ccccc2)[C@H](C)CN([C@@H](C)CO)C(=O)c2cc(NC(=O)Nc3cccc4ccccc34)ccc2O1
→ -14	7[16.7 µM]
O=C(Nc1ccc(F)cc1)N[C@H]1C=C[C@H](CC(=O)N2CCCCC2)O[C@H]1CO
→ 4	1[16.7 µM]
COCCNC(=O)C[C@H]1CC[C@@H]2[C@H](COc3ccc(NC(=O)Nc4ccccc4)cc3C(=O)N2C)O1
→ 0	3[16.7 µM]
C[C@@H]1CN([C@H](C)CO)S(=O)(=O)c2ccc(-c3cccnc3)cc2O[C@@H]1CN(C)Cc1ccccn1
→ -32	0[16.7 µM]
COc1ccc(S(=O)(=O)Nc2ccc3c(c2)C(=O)N([C@H](C)CO)C[C@@H](C)[C@@H](CN(C)C(=O)Nc2ccccc2)OCCCC[C@@H](C)O3)cc1
→ 5	-4[16.7 µM]
C[C@@H]1CN([C@@H](C)CO)C(=O)c2cccc(NC(=O)Nc3ccc4c(c3)OCO4)c2O[C@H]1CN(C)CC1CCCCC1
→ -11	20[16.7 µM]
CC(C)NC(=O)N(C)C[C@@H]1Oc2cc(C3=CCCCC3)ccc2S(=O)(=O)N([C@H](C)CO)C[C@H]1C
→ 9	19[16.7 µM]
C[C@@H]1CN([C@@H](C)CO)S(=O)(=O)c2ccc(-c3cccnc3)cc2O[C@@H]1CN(C)C
→ -12	8[16.7 µM]
Cc1ccc(-c2ccc3c(c2)O[C@@H](CN(C)C(=O)C2CC2)[C@@H](C)CN([C@@H](C)CO)S3(=O)=O)cc1
→ -9	-3[16.7 µM]
C[C@@H]1CN([C@H](C)CO)C(=O)Cc2cc(NS(=O)(=O)c3ccc(Cl)cc3)ccc2O[C@H]1CN(C)Cc1ccc2c(c1)OCO2
→ -2	25[16.7 µM]
C[C@@H]1CN([C@H](C)CO)C(=O)c2cccc(NC(=O)Nc3cccc4ccccc34)c2O[C@@H]1CN(C)C(=O)Nc1ccc(C(F)(F)F)cc1
→ 14	16[16.7 µM]
C[C@@H]1CN([C@H](C)CO)C(=O)c2cccc(NS(=O)(=O)c3cn(C)cn3)c2O[C@H]1CN(C)Cc1ccc2c(c1)OCO2
→ -13	-17[16.7 µM]
C[C@H]1CN([C@@H](C)CO)C(=O)c2cc(NS(=O)(=O)c3cccs3)ccc2O[C@H]1CN(C)Cc1ccc(Cl)c(Cl)c1
→ 7	12[16.7 µM]
C[C@H](CO)N1C[C@H](C)[C@@H](CN(C)CC2CCCCC2)Oc2c(NC(=O)C3CCCCC3)cccc2C1=O
→ -1	32[16.7 µM]
C[C@@H]1CN([C@@H](C)CO)C(=O)c2cccc(NS(=O)(=O)c3ccc(Cl)cc3)c2O[C@@H]1CN(C)S(=O)(=O)c1cccs1
→ -2	12[16.7 µM]
C[C@@H]1CN([C@@H](C)CO)C(=O)c2cc(NC(=O)Nc3ccc4c(c3)OCO4)ccc2O[C@@H](C)CCCCO[C@@H]1CN(C)C(=O)Nc1ccccc1
→ 2	-10[16.7 µM]
CC(C)NC(=O)Nc1ccc2c(c1)C(=O)N([C@@H](C)CO)C[C@H](C)[C@@H](CN(C)Cc1ccc(C(=O)O)cc1)OCCCC[C@H](C)O2
→ 12	-5[16.7 µM]
C[C@@H]1CN([C@H](C)CO)C(=O)c2cc(NC(=O)CCCN(C)C)ccc2O[C@@H](C)CCCCO[C@H]1CN(C)S(=O)(=O)c1ccc(Cl)cc1
→ -11	12[16.7 µM]
C[C@H]1CN([C@@H](C)CO)S(=O)(=O)c2ccc(C#CC(C)(C)O)cc2O[C@@H]1CN(C)C(=O)C1CCCCC1
→ 5	-60[16.7 µM]
O=C(C[C@H]1C[C@H]2c3cc(NC(=O)CC4CC4)ccc3O[C@H]2[C@H](CO)O1)NCc1ccc(-c2ccccc2)cc1
→ -4	24[16.7 µM]
C[C@H]1CCCCO[C@@H](CN(C)Cc2ccc(C(=O)O)cc2)[C@@H](C)CN([C@@H](C)CO)C(=O)c2cc(NC(=O)c3ccncc3)ccc2O1
→ -1	-16[16.7 µM]
CO[C@@H]1CN(C)C(=O)c2cc(NC(=O)Nc3cccc(F)c3)ccc2OC[C@@H](C)N(C)C[C@H]1C
→ -3	26[16.7 µM]
O=C(C[C@H]1CC[C@H](NC(=O)C2CC2)[C@@H](CO)O1)NCC1CC1
→ 3	-10[16.7 µM]
COc1ccc(NC(=O)N(C)C[C@H]2OCCCC[C@H](C)Oc3ccc(NC(=O)CCC(F)(F)F)cc3C(=O)N([C@@H](C)CO)C[C@@H]2C)cc1
→ 27	-26[16.7 µM]
O=C(N[C@@H]1CC[C@H](CCn2cc(C3CC3)nn2)O[C@@H]1CO)c1cccnc1
→ 8	2[16.7 µM]
C[C@@H]1CN([C@H](C)CO)C(=O)c2cccc(NC(=O)c3cnccn3)c2O[C@H]1CN(C)C(=O)Nc1ccc(F)cc1
→ -2	4[16.7 µM]
C[C@H](CO)N1C[C@H](C)[C@H](CN(C)C(=O)c2ccccc2)OCCCC[C@H](C)Oc2ccc(NS(C)(=O)=O)cc2C1=O
→ 12	-12[16.7 µM]
C[C@@H]1CN([C@@H](C)CO)C(=O)Cc2cc(NC(=O)CCC(F)(F)F)ccc2O[C@H]1CN(C)Cc1ccc(Cl)c(Cl)c1
→ 3	30[16.7 µM]

# Single entries from the results shown:
# `CO[C@@H]1CN(C)C(=O)c2cc(NC(=O)Nc3cccc(F)c3)ccc2OC[C@@H](C)N(C)C[C@H]1C` @ Env fusion inh: 26[16.7 µM]
# `O=C(C[C@H]1CC[C@H](NC(=O)C2CC2)[C@@H](CO)O1)NCC1CC1` @ Yeast UUG start: 3
